Bioassay records from PubChem BioAssay.
Measles inh: inhibitors of measles virus growth in cells, primary screen, measles RdRp inhibitor project, cell-based, single point, HTS; z-score (test concentration not listed); infected Vero cells, GFP fluorescence, 64 h; stronger effect = lower value; 0.1% of 33,000 active;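 active means z-score under -3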;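 further: score is relative to mean and SD of the compound wells of a plate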
* = called active by the depositor. Some of the compounds tested; the hit share may differ from the screen's.

For Cc1cccc(NS(=O)(=O)c2csc(C(=O)Nc3ccccc3)c2)c1 the results were Measles inh -0.5.
Screening COc1cc(OC)cc(C(=O)Nc2c3c(nn2-c2ccc(C)cc2C)CSC3)c1 returned Measles inh 1.2.
`CCCCNc1cc(C)nc(NCc2ccccc2)n1` gave Measles inh -0.11.
Screening CC(C)(C)c1ccc(C(=O)Nc2ccc3oc(-c4cccnc4)nc3c2)cc1 returned Measles inh 0.36.
CC(C)CCNC(=O)CN1C(=O)c2ccccc2S1(=O)=O was read as Measles inh -1.3.
For O=C(Nc1nc2ccc([N+](=O)[O-])cc2s1)c1ccc(C(=O)c2ccccc2)cc1 the results were Measles inh -1.2.
Screening O=C(CSc1nnc2c(n1)[nH]c1ccccc12)Nc1ccc(Cl)cc1 returned Measles inh -1.3.
For COc1ccc(Br)cc1CN1C(=O)CCC1(C)C(=O)NC1CCCCCCC1 (centres undefined) the results were Measles inh -0.47.
Screening O=c1c2ccccc2n(Cc2cc(=O)n3ccccc3n2)c(=O)n1Cc1ccccc1 returned Measles inh 0.22.
For O=C(c1ccc(C2SCC(=O)N2CCc2ccccc2)cc1)N1CCCC1 (centres undefined) the results were Measles inh -0.58.
For Cc1cc(NC(=O)CC2Nc3ccccc3NC2=O)no1 (centres undefined) the results were Measles inh -0.91.
For CCCCOc1ccc(N2C(=O)CC(N3CCSCC3)C2=O)cc1 (centres undefined) the results were Measles inh -0.17.
For CCC(C)OC(=O)C1=C(C)NC2=C(C(=O)C(C(=O)OC)C(C)C2)C1c1ccc(C)c([N+](=O)[O-])c1 (centres undefined) the results were Measles inh -0.23.
Screening COc1ccc(OC)c(NC(=O)c2cc(Cl)ccc2[N+](=O)[O-])c1 returned Measles inh -0.12.
CC(=O)Nc1cc(C(=O)N(C)CCC#N)ccc1Sc1ccc(Cl)cc1 was read as Measles inh -1.1.

The last two compounds of the section before come first, to join the parts:
Screening COc1ccc(OC)c(NC(=O)c2cc(Cl)ccc2[N+](=O)[O-])c1 returned Measles inh -0.12.
CC(=O)Nc1cc(C(=O)N(C)CCC#N)ccc1Sc1ccc(Cl)cc1 was read as Measles inh -1.1.
Screening CC(Nc1ncnc2c1oc1ccccc12)C(=O)O (centres undefined) returned Measles inh 2.4.
Screening Cc1c(C(=O)Nc2ccc3c(c2)OCO3)sc2ncn(CC(=O)Nc3cccc(C(F)(F)F)c3)c(=O)c12 returned Measles inh 0.14.
`CC1(C(=O)O)NC(c2cc(Br)ccc2O)C2C(=O)N(c3cccc(Cl)c3)C(=O)C21` (centres undefined) gave Measles inh 0.9.
`CC(=O)C1=NN(c2cccc(Cl)c2)C2C(=O)N(c3ccc(C)cc3)C(=O)C12` (centres undefined) gave Measles inh 0.97.
N#Cc1cccc2c1-c1ccc([N+](=O)[O-])cc1C2=O was read as Measles inh 3.5.
`COC(c1cccs1)c1c[nH]c2ccccc12` (centres undefined) gave Measles inh 0.2.
COCCn1c(=S)[nH]c2cc(C(=O)NCCc3cnc[nH]3)ccc2c1=O was read as Measles inh 0.21.
`Nc1ccc(C=Cc2nc3ccc(N)cc3[nH]2)cc1` gave Measles inh 0.
COCCOC(=O)C1=C(C)NC2=C(C(=O)C(C(=O)OC)C(C)C2)C1c1ccc(C(F)(F)F)cc1 (centres undefined) was read as Measles inh 1.3.
`O=C(O)C1Nc2ccc3ccccc3c2C2C=CCC12` (centres undefined) gave Measles inh 1.4.
For CN(C)c1ccc(NC(=O)CN2CCN(CC(=O)Nc3ccccc3F)CC2)cc1 the results were Measles inh 0.59.
Screening N#Cc1c(N)nc(SCC(=O)c2cc3ccccc3oc2=O)c(C#N)c1-c1cccs1 returned Measles inh 1.3.
For COc1cc(NS(=O)(=O)c2ccc(NC(=O)c3ccccc3OC)cc2)nc(OC)n1 the results were Measles inh 0.66.
Screening O=[N+]([O-])c1ccc2c(c1)CCCN2 returned Measles inh 0.6.
`CC1(C)CC(=O)C2=C(C1)Nc1nc(C(F)(F)F)nn1C2c1cccc(F)c1` (centres undefined) gave Measles inh -0.62.
For Cc1ccc2oc(-c3cc(NC(=O)c4cccc([N+](=O)[O-])c4)ccc3Cl)nc2c1 the results were Measles inh -0.02.
For COC(=O)C1(C(F)(F)F)C2C=CC(C2)N1S(C)(=O)=O (centres undefined) the results were Measles inh 1.4.
`O=c1c2cc3c(cc2nc2sc(NCc4ccc5c(c4)OCO5)nn12)OCO3` gave Measles inh -0.67.
COCc1nnc(NC(=O)c2ccc(S(=O)(=O)N(C)c3ccccc3)cc2)o1 was read as Measles inh 0.62.
Screening O=C(c1cccc(Cl)c1)N1CCN(c2ccc([N+](=O)[O-])c(NCc3ccco3)c2)CC1 returned Measles inh 0.47.
`CCOc1ccc(NS(=O)(=O)c2ccc3[nH]cc(C(=O)NC(C)CC)c(=O)c3c2)cc1` (centres undefined) gave Measles inh -0.42.
For Cc1ccc(C(=O)C(C)Sc2nc3ccccc3o2)cc1 (centres undefined) the results were Measles inh -1.5.
COC(=O)C1=CN(Cc2ccc(Cl)cc2)C=C(C(=O)OC)C1c1ccc2c(c1)OCO2 was read as Measles inh 1.
COc1ccc(C(=O)N2N=C(c3cccc(NS(C)(=O)=O)c3)CC2c2cccs2)cc1 (centres undefined) was read as Measles inh 0.72.
Screening CN(C)c1ccc(CN(C(=O)c2ccc(F)cc2)C2CCS(=O)(=O)C2)cc1 (centres undefined) returned Measles inh -1.1.
COC(=O)CN1C(c2ccc(O)cc2)Nc2ccc(Br)cc2C1c1ccccc1 (centres undefined) was read as Measles inh -0.78.
For CCCN(C(=O)Cc1c(C(=O)O)[nH]c2ccccc12)c1ccc(F)cc1 the results were Measles inh -0.61.
Cc1ccsc1C1C=C(c2cccc(Br)c2)Nc2ncnn21 (centres undefined) was read as Measles inh 0.72.
`COC(=O)C1=C(C)NC(=O)NC1c1cc(Cl)c(O)c(OC)c1` (centres undefined) gave Measles inh 2.4.
For COc1ccc(-c2cc(C(=O)N3CCN(c4ccccc4OC)CC3)no2)cc1OC the results were Measles inh -0.9.
For COc1cc(NC(=O)c2c(-c3ccccc3Cl)noc2C)c2ncccc2c1 the results were Measles inh -0.24.
Screening O=C(Cn1c(=O)oc2ccccc21)Nc1ccc2c3c(cccc13)CC2 returned Measles inh -0.23.
Screening O=S1(=O)N=C(C2CCNCC2)Nc2ccccc21 returned Measles inh -0.18.
O=C(c1ccc([N+](=O)[O-])cc1)N1CCN(S(=O)(=O)c2ccc(F)cc2)CC1 was read as Measles inh 0.46.
For Oc1ccc(Cl)cc1C1CC(c2ccc3c(c2)OCO3)=NC(c2ccc(Cl)cc2)N1 (centres undefined) the results were Measles inh -1.
For CCOC(=O)C1=C(C)Nc2nc3ccccc3n2C1c1ccc(Cl)cc1 (centres undefined) the results were Measles inh -0.78.
Screening CC(O)C12c3ccccc3C(c3ccccc31)C1C(=O)N(c3cccc(Br)c3)C(=O)C12 (centres undefined) returned Measles inh 0.06.
`CC(C)(C)c1ccc(NC(=O)c2ccc(Br)cc2)c([N+](=O)[O-])c1` gave Measles inh 0.13.
For CC(C(=O)NCc1ccccc1Cl)C1Sc2ccccc2N(Cc2ccc(F)cc2)C1=O (centres undefined) the results were Measles inh 1.1.
CCCCc1nc(NCCC(C)C)c(C#N)c2c1CCCC2 was read as Measles inh -0.54.
Screening O=C(COC(=O)c1ccccc1I)c1ccc(NC(=O)c2ccccc2)cc1 returned Measles inh -1.2.
Screening O=C(c1ccc(N2CCCC2=O)cc1)N1CCCCC1 returned Measles inh 2.
Screening COc1ccc(CSc2nc3ccccc3c(=O)n2-c2ccccc2)cc1OC returned Measles inh 0.58.
`COc1ccc(-n2c(-c3ccc(F)cc3)cn3c4c(=O)n(C)c(=O)n(C)c4nc23)cc1` gave Measles inh -0.66.
Screening Cc1ccccc1-n1nc2c(c1NC(=O)C1CC1)CS(=O)C2 (centres undefined) returned Measles inh 0.22.

Four compounds picked at random from the list so far, as already listed:
For CCC(C)OC(=O)C1=C(C)NC2=C(C(=O)C(C(=O)OC)C(C)C2)C1c1ccc(C)c([N+](=O)[O-])c1 (centres undefined) the results were Measles inh -0.23.
Screening COc1ccc(OC)c(NC(=O)c2cc(Cl)ccc2[N+](=O)[O-])c1 returned Measles inh -0.12.
Screening O=C(c1ccc(N2CCCC2=O)cc1)N1CCCCC1 returned Measles inh 2.
For Cc1cccc(NS(=O)(=O)c2csc(C(=O)Nc3ccccc3)c2)c1 the results were Measles inh -0.5.

Already shown: entries from further up.
Screening COc1ccc(CSc2nc3ccccc3c(=O)n2-c2ccccc2)cc1OC returned Measles inh 0.58.
`COc1ccc(-n2c(-c3ccc(F)cc3)cn3c4c(=O)n(C)c(=O)n(C)c4nc23)cc1` gave Measles inh -0.66.
Screening Cc1ccccc1-n1nc2c(c1NC(=O)C1CC1)CS(=O)C2 (centres undefined) returned Measles inh 0.22.

Next structures follow.
CC1=C(C(=O)OCC2CCCCC2)C(c2ccc(Cl)cc2)NC(=O)N1 (centres undefined) was read as Measles inh -0.93.
O=S(=O)(CCc1nc2ccccc2[nH]1)c1ccc2ccccc2c1 was read as Measles inh 1.2.
Screening CCCCOC(=O)C1C2C=CC3(CN(C4CCCCC4)C(=O)C13)O2 (centres undefined) returned Measles inh 0.75.
`CCN(CC)CCNC(=O)c1c(O)c2cccc3c2n(c1=O)CCC3` gave Measles inh 0.46.
For O=C(CSc1nc2[nH]ncc2c(=O)n1-c1ccccc1)Nc1ccc(Cl)cc1 the results were Measles inh -0.03.
`Cn1c(=O)c2c([nH]c(=S)n2CC2CC2)n(C)c1=O` gave Measles inh -2.1.
`O=C(NCCc1c[nH]c2ccccc12)c1cccn2c(=O)c3sccc3nc12` gave Measles inh -1.7.
Screening O=C(NC1CCCC1)C1CCCN(S(=O)(=O)c2ccc(Br)s2)C1 (centres undefined) returned Measles inh 1.3.
For O=C(CSc1nnnn1-c1ccc(O)cc1)NC1CCCCC1 the results were Measles inh 1.8.
For COCc1cc(C)nc2sc(C(=O)N3CCOCC3)c(N=P(c3ccccc3)(c3ccccc3)c3ccccc3)c12 the results were Measles inh -0.01.
For COc1cc2c(C(=O)N3CCN(C)CC3)cn(CC(C)C)c(=O)c2cc1OC the results were Measles inh -0.42.
For Cc1ccc(-c2ccc(=O)n(CC(=O)O)n2)cc1 the results were Measles inh -1.1.
Screening N#Cc1c(SCC(=O)C2CC2)nsc1SCC(=O)C1CC1 returned Measles inh -0.05.
For Cc1nc2nc(SCC(=O)N3CCC(C)CC3)nn2c(C)c1Cc1ccccc1Cl the results were Measles inh 1.8.
`O=C(CN1CCc2ccccc2C1)Nc1ccc(Oc2ccccc2)cc1` gave Measles inh 0.35.
CCOC(=O)c1ccc(Nc2ncnc3c2cnn3-c2ccc(C)cc2)cc1 was read as Measles inh 1.2.
`Cc1cc(C)cc(NC(=O)C2C3C=CC4(O3)C2C(=O)N(Cc2ccc(F)cc2)C4C(=O)NC2CCCCC2)c1` (centres undefined) gave Measles inh -0.88.
Screening Cc1ccc2nc(-c3ccc(Cl)c(NC(=O)Cc4ccccc4)c3)oc2c1 returned Measles inh -2.
`Cc1cc(=O)oc2[nH]c(=S)[nH]c(=O)c12` gave Measles inh -0.65.
Screening CCC1SC2=NC(C)=C(C(=O)OCCOC)C(c3ccc(C(C)(C)C)cc3)N2C1=O (centres undefined) returned Measles inh -0.32.
`CC(C)CCC1=NN(C(=O)c2cccc(Br)c2)C(O)(C(F)(F)F)C1` (centres undefined) gave Measles inh 0.64.
For COc1ccc(Br)cc1C(=O)Nc1ccc(Cl)cn1 the results were Measles inh -0.57.
Cc1c(C(=O)OC2CCCC2)[nH]c2c1C(=O)CCC2 was read as Measles inh -0.58.
For O=[N+]([O-])c1cn(Cc2ccc(F)cc2)cn1 the results were Measles inh 0.91.
Screening COc1cccc(C(=O)Nc2ccc(N3CCCC3)c(Cl)c2)c1 returned Measles inh -0.19.
For Cc1ccc(S(=O)(=O)NCCNC(=O)CN2CCN(C)CC2)cc1 the results were Measles inh -0.64.
For CCSc1ccc(NC(=O)CC2c3ccccc3Oc3ccccc32)cc1 the results were Measles inh -0.01.
`O=C(Nc1ccc(Cl)cn1)c1ccc([N+](=O)[O-])cc1` gave Measles inh -0.4.
Screening COc1ccc(C(=O)n2c(=S)nc3ccccn32)cc1 returned Measles inh -0.49.
Screening COC(=O)c1c(NC(=O)c2ccc(Cl)c([N+](=O)[O-])c2)sc2c1CCC(C)C2 (centres undefined) returned Measles inh 0.79.
Screening CC(=O)NC(=O)c1cc2ccccc2oc1=Nc1cccc2ccccc12 returned Measles inh -0.2.
`CCc1ccc(S(=O)(=O)N2CCSC2c2cc(OC)ccc2OC)cc1` (centres undefined) gave Measles inh 0.64.
For CC(=O)NC(=O)CSc1nc2ccccc2o1 the results were Measles inh -0.26.
`O=C(CN1CCCN(S(=O)(=O)c2ccc(F)cc2)CC1)Nc1ccc2c(c1)OCO2` gave Measles inh 0.61.
CCCN(C(=O)c1cc2c(=O)n3ccccc3nc2s1)c1ccc(C(C)C)cc1 was read as Measles inh 0.84.
